TRPV1 PAM = HTS Assay for Compounds that Act as Potentiators of the Vanilloid Receptor 1; AID 540277, 2011; potentiation, % at 8.33 µM; 320,000 tested, 0.02% active; TRPV1-expressing cells, Fluo-8 calcium influx, capsaicin EC20 potentiation; host cell line not named in the record; control for the full effect not named in the record; active means potentiation above 80%; inconclusive means 30% to 80%; inactive means below 30%; note: 0% is about no effect
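Cells expressing TRPV1 were dye-loaded with Fluo-8 and read kinetically: 10 s baseline, 3 min after compound (agonist portion), then 2 min after EC20 capsaicin (allosteric enhancer portion). Calcium-bound dye fluorescence at 480/520 nm.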
gsp agonist = qHTS for Agonist of gsp, the Etiologic Mutation Responsible for Fibrous Dysplasia/McCune-Albright Syndrome: qHTS. Potency, µM (titrated, usually from 76.9 µM), for the others: at the highest dose activation (cAMP increase), hits mostly activators. gsp mutant cells, cAMP HTRF, 30 min; control for the full effect not named in the record. 340,000 tested, 0.13% active; active = well fitted activation curve with a large enough effect; inconclusive = small, poorly fitted or top-dose-only effect, or another doubt; inactive = no such curve, though single readings can be large or run the other way; cell line not stated here;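 note: phosphodiesterase inhibitor Ro 20-1724 added with compounds to block cAMP breakdown; potency is the fitted concentration of half-maximal effect; nearly all actives have a fitted effect of over 60% in size; about a fifth of the inactives were tested at one dose only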
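Cells stably selected in G418 were plated at 2000/well, grown 16-24 hr, then given compounds in DMSO with the PDE inhibitor […] (300 uM solution added) for 30 min at 37C; cAMP was read by HTRF.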
Sfp PPTase inh = qHTS Assay for Inhibitors of Bacillus subtilis Sfp phosphopantetheinyl transferase (PPTase); AID 1490, 2009; 4'-phosphopantetheinyl transferase ffp (Bacillus subtilis), Q9F4F7; 310,000 tested, 3.5% active; Potency, µM, without a hit: max response, negative = inhibition, usual class: inhibitors; Biochemical Sfp PPTase activity, qHTS; active = well fitted inhibition curve with a large enough effect; inconclusive = small, poorly fitted or top-dose-only effect, or another doubt; inactive = no such curve, though single readings can be large or run the other way;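 note: the enzyme is Sfp with the accession as filed and its product quenches rhodamine fluorescence; potency is the fitted concentration of half-maximal effect; 0% = enzyme reaction without inhibitor and -100% = no enzyme wells; top concentration of the series not given in the record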
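Sfp 15 nM + cpd, 15 min RT; start w/ rhodamine-CoA 5 uM, BHQ-2-YbbR 12.5 uM (final); 50 mM Hepes pH 7.6, 10 mM MgCl2, 0.01% NP-40, 0.01% BSA; read 525/598 nm at 0 and 30 min.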
TRPML1 blocker = qHTS for Inhibitors of the Human Mucolipin Transient Receptor Potential 1 (TRPML1); AID 624415, 2012; activity change, negative = inhibition, % (no concentration beside the values); Mucolipin-1 (Homo sapiens), Q9GZU1; 390,000 tested, 0.02% active; TRPML1-inducible cells, Ca2+ dye fluorescence, FDSS; stronger effect = lower value; inhibition of EC80 agonist-evoked calcium signal; in the data active means activity change below about -50%; inconclusive means about -30% to -50%; inactive means above about -30%;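 note: stimulus is agonist 54-4 at its EC80 concentration; % is set by controls: 0 for no effect and ±100 for the full control effect; compound concentration not given in the record; the text of the record puts the active cut at -80%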
Target sequence (Q9GZU1 whole entry, looked up): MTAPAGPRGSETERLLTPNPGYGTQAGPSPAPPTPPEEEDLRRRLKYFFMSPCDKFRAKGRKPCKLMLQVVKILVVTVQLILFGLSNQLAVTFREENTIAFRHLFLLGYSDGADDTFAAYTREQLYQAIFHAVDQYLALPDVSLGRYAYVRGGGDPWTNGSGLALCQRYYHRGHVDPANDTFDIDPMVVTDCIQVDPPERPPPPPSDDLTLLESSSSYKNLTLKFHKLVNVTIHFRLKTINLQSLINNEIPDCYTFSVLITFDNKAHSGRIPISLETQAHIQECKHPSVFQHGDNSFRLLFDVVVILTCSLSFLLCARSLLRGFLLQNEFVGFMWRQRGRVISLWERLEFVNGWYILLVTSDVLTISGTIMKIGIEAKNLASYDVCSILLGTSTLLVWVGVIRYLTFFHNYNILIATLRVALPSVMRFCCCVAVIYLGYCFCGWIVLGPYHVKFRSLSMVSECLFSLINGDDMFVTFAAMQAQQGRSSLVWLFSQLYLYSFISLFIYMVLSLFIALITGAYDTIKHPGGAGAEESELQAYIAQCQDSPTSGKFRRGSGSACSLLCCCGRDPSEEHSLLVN
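Calcium fluorescence in TRPML1-DL cells induced overnight with Tet: a 110 s read after compound pin addition, then a 110 s antagonist read after challenge with 54-4 at 4 uM final (EC80).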
ClpP mod = qHTS Assay for Activators of ClpP. ATP-dependent Clp protease proteolytic subunit (Bacillus subtilis (strain 168)), P80244. 340,000 tested, 1.9% active. Potency, µM (top dose mostly 57.5 µM), for inactives: at the top dose activity change, negative = active. purified B. subtilis ClpP, FRET peptide cleavage, 20 min. AID 651965, 2013; active = well fitted falling curve with a large enough effect; inconclusive = small, poorly fitted or top-dose-only effect; inactive = no such curve, though single readings can be large or run the other way; note: potency is the fitted concentration of half-maximal effect; the source files actives as falling curves though it sought activators and does not explain the sign; nearly all actives have a fitted effect of over 65% in size; many hits overshoot -100%
Target sequence (P80244 whole entry, looked up): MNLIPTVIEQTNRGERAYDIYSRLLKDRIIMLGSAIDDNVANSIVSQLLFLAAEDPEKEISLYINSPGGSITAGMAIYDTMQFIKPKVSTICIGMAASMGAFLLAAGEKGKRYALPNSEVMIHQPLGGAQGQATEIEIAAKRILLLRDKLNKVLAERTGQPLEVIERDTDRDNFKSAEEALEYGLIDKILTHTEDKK
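ClpP 10 microg/mL final, pH 8 Tris/KCl buffer with BSA, glycerol, Tween-20; compound pinned in; FRET-FV substrate; RT 20 min; Ex320/Em430; ΔFRET vs ADEP 5.8 microM, DMSO, no enzyme.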
Menin MLL FP FL = qHTS Assay for Inhibitors Targeting the Menin-MLL Interaction in MLL Related Leukemias: Competition With Fluorescein Labeled MLL-derived Peptide. FP activity change, % at 61.4 µM. 290,000 tested, under 10 active. Fluorescence polarization, fluorescein-MLL peptide displacement from menin; inconclusive = falling polarisation curve, or a change in total fluorescence; inactive = total fluorescence flat and polarisation flat or rising; no compound was filed as active; the % refers to the polarisation; negative = inhibition;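 note: % of control where 0% means no effect; inhibitors lower the polarisation; unlabelled MLL peptide was the positive control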
gsp antag = qHTS for Antagonists of gsp, the Etiologic Mutation Responsible for Fibrous Dysplasia/McCune-Albright Syndrome: qHTS; Potency, µM (series often up to 76.9 µM), without a hit: top-dose activity change, negative = inhibition, usual class: inhibitors; AID 624288, 2012; gsp-mutant cells, cAMP HTRF, 30 min; control for the full effect not named in the record; 340,000 tested, 0.4% active; active = falling curve of any shape with a large fitted effect; inconclusive = falling curve, mostly with a smaller effect; inactive = flat or rising curve; cell line not stated here;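 note: intracellular cAMP measured with PDE inhibitor Ro 20-1724 present during compound exposure; potency is the fitted concentration of half-maximal effect; % is set by controls: 0 for no effect and ±100 for the full control effect; nearly all actives have a fitted effect of over 65% in size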
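HTRF cAMP read-out (cAMP-d2 plus anti-cAMP antibody-K in lysis buffer, 30 min RT). Before lysis, cells are exposed to compounds with […] for 30 min at 37C in DPBS containing Ca/Mg, BSA and Tween 20.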
The depositor's hits bear a star; ? = inconclusive; · = no result given; [ ] = remark or other dose.

SMILES	TRPV1 PAM	gsp agonist	Sfp PPTase inh	TRPML1 blocker	ClpP mod	Menin MLL FP FL	gsp antag
O=C(Nc1cccc(NC(=O)C2C3CC4OC(=O)C2C4C3)c1)c1ccccc1 (centres undefined)	-6.8	7.3%[15.4 µM]	-7.6%	1.1	·	1.2	-5.0%
COCCN1C(=O)C(O)=C(C(=O)c2ccco2)C1c1cccc(Oc2ccccc2)c1 (centres undefined)	2.5	?	-12.4%	5.6	-2.7%	-0.8	-25.1%
N#Cc1cccc(Cn2cc(C(F)(F)F)ccc2=O)c1	5.5	-7.2%[15.4 µM]	3.5%	-1.1	0.4%	-1.9	12.4%
O=C(COC(=O)c1sc2ccccc2c1Cl)Nc1ncc(Cl)cc1Cl	7.4	19.4%[15.4 µM]	-6.8%	3.9	·	3.9	4.7%
COc1cccc(OC)c1C(=O)NC(=O)NNc1cc(C(F)(F)F)cc(C)n1	-4.1	7.8%	9.8%	-4.1	-2.9%	·	8.9%
Cc1c(C(c2ccc([N+](=O)[O-])cc2)c2c(C)n(C)n(-c3ccccc3)c2=O)c(=O)n(-c2ccccc2)n1C	20.1	-45.5%[inhibitor]	-6.8%	26.3	-1.6%	-0.8	5.9%
CC(C)(C)c1ccc(-c2nc3[nH]c(=O)cc(NC(=O)c4ccco4)n3n2)cc1	22.6	?	39.8µM*	10.6	-2.0%	·	-3.7%
COc1ccc2cc(-c3cc(C(=O)OCC(=O)NC4CCS(=O)(=O)C4)c4ccccc4n3)ccc2c1 (centres undefined)	-18.0	-4.5%	?	24.8	?	7.8	-2.4%
CCCc1cc2c(=O)c(-c3ccccn3)coc2cc1OC	-13.2	-43.3%[inhibitor]	11.1%	-11.8	-0.4%	0.4	9.2%
Cn1c(N)c(C(=O)CSc2nc(N)cc(N)n2)c(=O)n(C)c1=O	8.0	?	2.5%	22.4	0.4%	-5.6	10.8%
O=C1c2cccnc2C(=O)N1CNc1ccc(Cl)cc1	2.3	-7.8%	10.8%	9.2	-0.1%	3.1	10.4%
CN(Cc1ccccc1F)C(=O)c1ccc2c(=O)n3c(nc2c1)CCC3	2.9	1.1%	·	-9.8	-8.4%	·	20.1%
Cc1cccc(N2CCN(C(=O)Cc3ccc(-n4c(=O)[nH]c5ccsc5c4=O)cc3)CC2)c1C	?	-9.1%	-12.9%	-11.3	-1.7%	5.5	?
Cc1ccc(CNC(=O)C2CCC(=O)N(CCc3ccc(Cl)cc3)C2)s1 (centres undefined)	0.5	21.2%[15.4 µM]	10.4%	22.6	1.8%	·	-15.3%
O=C(Nc1nc(NC(=O)c2ccco2)n(-c2ccccc2)n1)c1ccccc1	-0.8	-40.2%[inhibitor]	-18.4%	1.7	6.8%	-0.6	12.4%
Nc1nc(SCC(=O)NCCc2ccccc2)[nH]c(=O)c1-c1ccccc1	4.1	·	17.8%	·	·	-1.0	·
Cc1cc2c(c(N)n1)c(=O)oc1ccccc12	-5.1	-6.4%	5.7%	9.9	39.8µM*	2.5	-12.7%
COCCCNC(=O)c1ccc(N(C)S(=O)(=O)c2ccc(OC)cc2)cc1	13.1	-34.2%[inhibitor]	15.2%	18.4	0.9%	2.3	-2.4%
O=C(c1ccc(NS(=O)(=O)c2ccccc2)cc1)N1CCCC1	2.1	-1.2%	5.3%	10.3	-2.1%	0.2	0.7%
CC(=O)NC(C(=O)N1CCC(c2nc3ccccc3s2)CC1)C(C)C (centres undefined)	0.7	-3.2%	-1.2%	7.4	-3.4%	5.9	3.6%
CC1=C(C(=O)N2CCCC(C(=O)c3cccc(C(F)(F)F)c3)C2)OCCO1 (centres undefined)	-1.8	-49.0%[inhibitor]	7.6%	-12.9	1.8%	1.1	-0.9%
CC(=O)c1nn(-c2ccccc2)cc1C(=O)c1ccc(Br)cc1	-7.9	-0.2%[15.4 µM]	30.1%	5.8	·	4.1	12.6%
O=C(Cc1c(C(=O)O)[nH]c2ccccc12)Nc1ccc2c(c1)OCO2	5.7	-8.6%	25.4%	0.4	-3.3%	-0.7	-11.4%
O=C1OCc2cc(-n3cccc3)ccc21	2.2	-2.3%[15.4 µM]	9.6%	-15.5	-2.3%	1.4	4.2%
CC1(C)CN(c2ccc(N3CC(C)(C)C3=O)cc2)C1=O	8.0	-2.9%[15.4 µM]	15.9%	2.0	·	0.4	8.9%
COc1ccc(S(=O)(=O)N2CCOC23CCN(C(=O)c2ccccc2Br)CC3)cc1	2.9	27.0%	0.3%	18.0	0.2%	·	?
COc1ccc(S(=O)(=O)NC(C)C(=O)NCc2ccncc2)cc1Cl (centres undefined)	-1.7	-1.7%	12.9%	-9.9	·	-4.9	1.6%
O=C(CSc1nnc(Cc2ccccc2)o1)NCc1ccc2c(c1)OCO2	7.9	-7.5%[15.4 µM]	1.3%	10.2	·	-5.1	·
C=CCSc1nnc(NC(=O)c2ccc(S(=O)(=O)NCC3CCCO3)cc2)s1 (centres undefined)	-13.6	22.0%	-0.7%	4.3	0.9%	-2.8	?
COc1ccc(S(=O)(=O)N(CCC#N)Cc2ccco2)cc1OC	19.1	-17.8%	14.0%	-8.4	-0.5%	-1.2	1.3%
COC(=O)C1=C(C(=O)OC)SC(=C2C(=S)C(C)(C)N(C(=O)CC(C)C)c3ccccc32)S1	-2.4	2.5%	?	5.3	0.3%	0.2	?
COC(C[C@@H](O)C[C@H](O)[C@H](C)OCc1ccccc1)OC	·	·	·	17.6	0.4%	·	50.1µM*
COc1ccc(-c2c(C)oc3c(CN4CCCC(C)C4)c(O)ccc3c2=O)cc1OC (centres undefined)	-7.8	5.8%	7.1%	16.4	·	-0.7	-1.7%
CC(C)CCNc1cc(=O)n(C)c(=O)n1C	7.9	0.4%	18.9%	-4.6	-0.6%	-8.5	2.1%
Cc1ccc(Nc2nnc(SC3CCOC3=O)s2)c(C)c1 (centres undefined)	-23.2	16.7%	-5.8%	-1.6	0.8%	2.3	1.4%
Cc1cc2nc(-c3ccc(SCC(=O)Nc4nccs4)nc3)[nH]c2cc1C	-25.3	-11.1%	-5.5%	-6.0	?	5.3	-14.4%
COC(=O)c1cc(C(=O)OC)cc(N2C(=O)CN=C2Nc2nc(C)cc(C)n2)c1	8.9	?	17.2%	4.3	?	-0.5	9.4%
O=C1C2C3C=CC(CO)(O3)C2C(=O)N1c1ccc(-c2ccccc2)cc1 (centres undefined)	-6.3	·	5.01µM*	·	·	3.7	·
CCOc1cccc(N(C(=O)CCC(=O)Nc2cc(C)on2)C(C(=O)NC(C)(C)C)c2ccc(OC)cc2)c1 (centres undefined)	4.9	-40.3%[inhibitor]	9.9%	-12.4	·	·	-7.0%
NCC12CC3CC(C1)CC(c1ccc(Br)cc1)(C3)C2	15.5	-0.7%	-15.3%	-2.3	2.2%	2.8	-2.0%

Overlap with the part before: four entries, then new ones.
SMILES	TRPV1 PAM	gsp agonist	Sfp PPTase inh	TRPML1 blocker	ClpP mod	Menin MLL FP FL	gsp antag
COC(=O)c1cc(C(=O)OC)cc(N2C(=O)CN=C2Nc2nc(C)cc(C)n2)c1	8.9	?	17.2%	4.3	?	-0.5	9.4%
O=C1C2C3C=CC(CO)(O3)C2C(=O)N1c1ccc(-c2ccccc2)cc1 (centres undefined)	-6.3	·	5.01µM*	·	·	3.7	·
CCOc1cccc(N(C(=O)CCC(=O)Nc2cc(C)on2)C(C(=O)NC(C)(C)C)c2ccc(OC)cc2)c1 (centres undefined)	4.9	-40.3%[inhibitor]	9.9%	-12.4	·	·	-7.0%
NCC12CC3CC(C1)CC(c1ccc(Br)cc1)(C3)C2	15.5	-0.7%	-15.3%	-2.3	2.2%	2.8	-2.0%
Cc1cccc(OCC(=O)OCC(=O)c2c(N)n(C)c(=O)n(C)c2=O)c1C	-1.4	6.5%	14.0%	1.4	-1.5%	-1.6	12.1%
Cc1c(NC(=O)CSCc2ccc(Br)cc2)c(=O)n(-c2ccccc2)n1C	8.9	-13.5%	13.5%	-10.2	0.3%	0.8	-2.4%
CC(C)CC(NC(N)=O)C(=O)Nc1ccc(Cl)c(Cl)c1 (centres undefined)	6.0	0.3%[15.4 µM]	13.2%	7.3	·	-2.5	18.5%
O=C(COC(=O)c1n[nH]c2ccccc12)Nc1ccc(Cl)cc1[N+](=O)[O-]	1.8	-26.7%	6.0%	8.5	·	2.3	-21.1%
CC(=O)c1cnc2sccn2c1=O	22.8	-5.2%[15.4 µM]	0.4%	10.7	·	-3.8	·
Cc1ccc(-c2nnc(N3CCN(C(=O)COc4cccc(C)c4)CC3)c3ccccc23)cc1	3.8	0.1%[15.4 µM]	-6.2%	26.0	-1.4%	-0.3	?
CC(C)NC(=O)C1CC(=O)N(c2ccc(F)c(Cl)c2)C1 (centres undefined)	-8.4	4.5%	9.1%	10.8	1.3%	6.9	7.5%
O=C(c1ccc2c(c1)OCO2)N1CCC2(CC1)Oc1ccc(F)cc1C(=O)C21CC(c2ccc(Cl)cc2)=NO1 (centres undefined)	-26.7	18.5%	8.7%	-5.6	-4.8%	0.7	-7.7%
CC(C)c1ccc(/C=C2\SC(=O)N(CC(=O)NCCCn3ccnc3)C2=O)cc1	-7.6	-14.0%	-6.7%	15.5	0.5%	-2.7	-8.8%
Cc1c(CC(=O)O)c(=O)oc2cc3occ(-c4ccccc4)c3cc12	-1.4	5.5%	-17.3%	·	-9.6%	8.5	-20.3%

Screening results: PubChem BioAssay, National Center for Advancing Translational Sciences (NCATS)
